KCNQ2 pot: potentiators of rat KCNQ2 potassium channel; Potassium voltage-gated channel subfamily KQT member 2 (Rattus norvegicus), O88943; CHO-K1 KCNQ2, FluxOR thallium flux fluorescence; hits give high values; B-score at 10 µM; 310,000 tested, 0.54% active; AID 2239, 2010;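 active means fluorescence ratio B-score at least 3 SD of library B-scores, with initial fluorescence B-score within 3 SD, cut at about 5.3 in these data; same plate scores as AID 2156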;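 further: B-score of peak minus minimum over baseline fluorescence ratio after K+ and Tl+ stimulus; positive B-score means potentiation of KCNQ2 with more thallium influx and brighter signal; only the inactives scoring about 0 or higher are listed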
Target sequence (O88943 whole entry, looked up): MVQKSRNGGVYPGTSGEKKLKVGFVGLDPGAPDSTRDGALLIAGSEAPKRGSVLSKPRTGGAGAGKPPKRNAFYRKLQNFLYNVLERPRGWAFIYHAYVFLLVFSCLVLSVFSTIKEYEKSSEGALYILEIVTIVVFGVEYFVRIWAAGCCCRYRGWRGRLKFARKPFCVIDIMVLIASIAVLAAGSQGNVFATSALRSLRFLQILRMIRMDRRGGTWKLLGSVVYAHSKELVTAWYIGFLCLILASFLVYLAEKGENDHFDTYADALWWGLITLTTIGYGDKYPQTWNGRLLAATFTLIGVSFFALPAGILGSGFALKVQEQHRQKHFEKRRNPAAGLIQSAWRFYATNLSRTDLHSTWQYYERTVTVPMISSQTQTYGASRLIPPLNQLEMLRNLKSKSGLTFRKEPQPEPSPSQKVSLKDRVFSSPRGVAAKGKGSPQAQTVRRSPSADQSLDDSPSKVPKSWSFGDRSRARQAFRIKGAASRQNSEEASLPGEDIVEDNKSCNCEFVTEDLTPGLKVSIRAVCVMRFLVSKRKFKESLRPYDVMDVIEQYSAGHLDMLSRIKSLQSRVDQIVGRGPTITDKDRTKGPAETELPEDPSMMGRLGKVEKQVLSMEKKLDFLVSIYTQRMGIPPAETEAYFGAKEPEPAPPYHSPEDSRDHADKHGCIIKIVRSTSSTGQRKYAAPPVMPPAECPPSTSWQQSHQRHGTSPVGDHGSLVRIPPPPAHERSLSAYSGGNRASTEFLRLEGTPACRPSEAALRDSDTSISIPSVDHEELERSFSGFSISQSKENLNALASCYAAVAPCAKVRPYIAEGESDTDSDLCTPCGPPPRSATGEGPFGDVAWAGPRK
KCNQ2 pot baseline: also measured in KCNQ2 pot; calls as there; B-score; compound at 10 µM; measured here: initial fluorescence intensity artifact check;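 brightness before thallium and not channel activity; 0 = typical well and far values either way flag optical interference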
* marks the source's active call; other numbers are inactive results. Only part of the results is shown (hit frequency here may not be typical).

SMILES	KCNQ2 pot	KCNQ2 pot baseline
CCOC(=O)N1CCC(NC(=O)C2CCN(S(=O)(=O)c3cccc4cccnc34)CC2)CC1	0.91	0.95
Cc1cccc(CCNC(=O)CCc2c(C)nc3ncnn3c2C)c1	0.24	0
Cc1cc(NC(=O)c2ccc(C)o2)no1	0.58	1.25
O=C(COC(=O)c1ccccc1NS(=O)(=O)c1cc([N+](=O)[O-])ccc1Cl)c1ccccc1	0.1	0.98
CCOc1ccccc1Nc1ccnc2cc(Cl)ccc12	0.02	-0.95
C=CCN1C(=O)c2ccc(C(=O)N(CC)CC(=O)Nc3cc(Cl)ccc3C)cc2C1=O	0.13	-0.04
CCc1ccc(C(=O)Nc2ccc3c(c2)n(C)c(=O)n3C)cc1	1.11	2.19
COc1ccc(NC(=O)NNC(=O)COc2ccc(Cl)cc2C)cc1OC	2.58	0.1
O=C(CCN1C(=O)c2ccccc2C1=O)NCCN1CCOCC1	1.15	-0.82
Cc1oncc1C(=O)Nc1ccc2ccccc2c1	1.57	3.58
O=C(NCCN1CCOCC1)c1cc2c(=O)n3ccccc3nc2n1Cc1ccccc1	1.8	-0.84
O=C(Nc1cccc([N+](=O)[O-])c1)C1C2CCCCC21 (centres undefined)	0.09	2.19
CCOc1ccc(S(=O)(=O)NCCC(=O)NCCCSc2ccccc2)cc1	0.24	0.76
CC(C)(C)c1ccc(C(=O)Nc2cccnc2)cc1	1.42	-0.36
Cc1cc(C)nc(NNC2=CC(=O)CC(C)(C)C2)n1	1.15	0.24
CNc1c(NS(=O)(=O)c2cc(Cl)ccc2OC)c(=O)oc2ccccc12	0.18	1.54
NNc1nc(Nc2ccccc2)nc(Nc2ccccc2)n1	4.07	-0.79
Cc1cccc(CCN(C(=O)c2csnn2)C(C(=O)NC2CCCC2)c2ccco2)c1 (centres undefined)	0.77	-0.05
CCC(=O)Nc1c(-c2ccccc2Cl)c(=O)c2ccccc2n1C	1.03	2.1
O=C(COc1ccc(Cl)cc1)NNC(=O)c1ccccn1	0.04	0.55
O=C(CC(=O)NC1CCCCC1)N/N=C/c1cccc2ccccc12	1.24	0.18
CNC(=O)c1nc[nH]c1C(=O)NC	0.61	-0.04
CCOC(=O)CCP(=O)(O)C(C)(O)c1ccccc1 (centres undefined)	0.71	-0.12
CCCN(CC1CCCO1)C(=O)CCc1nnc(CCc2ccc(OC)cc2)o1 (centres undefined)	0.49	0.55
O=C(CSC(=S)N1CCOCC1)Nc1ncc2c(n1)CC(c1ccco1)CC2=O (centres undefined)	0.7	-0.98
Next entries:
SMILES	KCNQ2 pot	KCNQ2 pot baseline
COc1ccccc1CCNS(=O)(=O)c1cc2c3c(c1)C(C)C(=O)N3CCC2 (centres undefined)	0.67	-2.54
COc1ccc(-n2c(Cc3cccn3C)nnc2SCC(=O)NCc2ccco2)cc1	0.48	2.58
Cc1cc(C(=O)CN2C(=O)NC3(CCCC3)C2=O)c(C)n1-c1ccc2c(c1)OCO2	0.25	-2.2
CSc1nc(C)cc(Oc2ccc(OCCOc3ccccc3)nn2)n1	0.06	-1.44
COc1cc(OC)c(C(=O)NCc2ccco2)cc1OC	0.17	2.08
COC(=O)[C@@H](NC(=O)Nc1cc(Cl)ccc1C)C(C)C	0.04	2.07
COc1cc(C(=S)N2CCOCC2)ccc1OC(=O)c1cc([N+](=O)[O-])c(C)c([N+](=O)[O-])c1	0.09	-2.37
NC(Cc1ccccc1)C(O)(c1ccccc1)c1ccccc1 (centres undefined)	0.26	-0.86
CCOc1ccc(N=Nc2ccc(O)c3ncccc23)cc1	23.3*	0.72*
O=C1CCN(S(=O)(=O)c2cccs2)c2ccc(C(F)(F)F)cc2N1	0.05	1.7
CCCc1c(O)nc(SCCN(CC)CC)n(C(=O)c2ccccc2)c1=O	0.81	-0.02
COC(=O)C1=C(C)N=C2SC(C)C(=O)N2C1c1ccc(C(=O)OC)cc1 (centres undefined)	0.51	-0.25
CCc1nc(N2CCN(C(C)=O)CC2)c2c3c(sc2n1)CC(C(C)(C)C)CC3 (centres undefined)	3.42	-0.15
O=C(O)c1cc(-c2cccc(Cl)c2)nc2nc(N3CCCCC3)sc12	0.6	0.99
Cc1ccccc1N1CCN(C2CCCN(C(=O)c3ccccn3)C2)CC1 (centres undefined)	0.38	-0.87
Cc1ccccc1C(=O)NNC(=S)NC(=O)c1ccc(Cl)cc1Cl	1.93	-0.57
CCOC(=O)c1c(C)nc(C)c(C(=O)OCC)c1-c1ccccc1	0.06	-1.97
Cc1nonc1N1CCN(Cc2cn[nH]c2-c2ccc3c(c2)OCO3)CC1	0.04	1.09
CCCCCN(C(=O)CCC(=O)OCc1ccc(Cl)cc1Cl)c1c(N)n(CCCC)c(=O)[nH]c1=O	0.14	-2.91
CCOC(=O)C1(CC2CCCCO2)CCN(S(=O)(=O)c2ccsc2)CC1 (centres undefined)	0.31	0.51
Cc1cc(S(=O)(=O)N(Cc2cccs2)Cc2ccccc2F)ccc1-n1cnnn1	0.45	0.83
O=C(/C=C/c1ccccc1Cl)Nc1ccncc1	1.8	-0.37
Cc1ccc(C(=O)CSC2=C(C#N)C(c3ccco3)CC(=O)N2)c(C)c1 (centres undefined)	0.72	0.43
CCC(C)[C@H](NC(=O)NCc1cccc(OC)c1)C(=O)OC (some centres undefined)	0.01	0.01
Cc1ccc(-c2nnc(SCC(=O)CC(=O)Nc3ccccc3)n2-c2ccccc2)cc1	0.02	1.32
Remaining list, next part.
SMILES	KCNQ2 pot	KCNQ2 pot baseline
C[C@H]1CC[C@@]2(O[C@H](CCO)C[C@H](O)[C@H]2O)O1	0.52	0.01
O=C(O)Cn1c(O)c(C2=c3ccccc3=NC2=O)sc1=O	0.07	1.42
NC(=O)CC(NC(=O)Cc1ccc(Br)cc1)c1ccc(NCc2ccc(F)cc2)c([N+](=O)[O-])c1 (centres undefined)	1.58	-0.12
COc1ccccc1-n1c(C)nnc1SCC(N)=O	0.35	0.24
CC(C)C(OC(=O)Cn1nnc2ccccc21)C(=O)NC1CCCC1 (centres undefined)	0.6	0.83
O=c1[nH]c(SCc2nc3ccccc3c(=O)n2-c2ccccc2)nc2ccccc12	1.14	-0.56
O=C(NCC1CCCO1)C(c1cccs1)N(C(=O)c1ccc(CN2CCOCC2)o1)c1ccc(Cl)cc1 (centres undefined)	0.01	-0.47
COc1ccc(NC(=O)c2cccc(Oc3ccccc3)c2)cn1	2.35	-1.61
CCCN(CC(=O)Nc1cc(Cl)ccc1Cl)C(=O)CN1C(=O)C2CCCCC2C1=O (centres undefined)	1.42	1.85
Cc1ccc(N=Nc2ccc(O)c3ncccc23)cc1	8.3*	-1.77*
N/C(=N\OC(=O)c1cccc2ccccc12)c1cccc([N+](=O)[O-])c1	0.82	0.08
Cc1nc(C)n(C)c(=O)c1-c1ccccc1	0.24	0.41
COCC(C)NC(=O)c1cc(-c2ccc(O)cc2)on1 (centres undefined)	1.39	-0.4
CCOC(=O)c1ccc(NS(=O)(=O)c2c(N)n(C)c(=O)n(C)c2=O)cc1	0.05	0.06
C1CCCCCC(=NNc2nn[nH]n2)CCCCC1	1.31	-0.94
COC(=O)N/N=C\c1c(C)nn(-c2ccccc2)c1Cl	0.58	0.25
NC(=O)c1oc2ccc(Cl)cc2c1NC(=O)CN1CCOCC1	1.77	-0.37
O=C(Nc1ccc(-c2csc(Nc3ccc(Cl)cc3)n2)cc1)c1cccc(C(F)(F)F)c1	1.15	1.07
COc1ccc(S(=O)(=O)N(C)CC(=O)NC2CC2)cc1	0.32	-0.27
CCCCCn1c(N)c(-c2nc3ccccc3o2)c2c([N+](=O)[O-])nn(C)c(=O)c21	0.22	-1.19
O=C(NNC(=O)C1COc2ccccc2O1)c1cccc([N+](=O)[O-])c1 (centres undefined)	2.02	-1.95
O=C(N/N=C/c1ccncc1)c1cccc(S(=O)(=O)Nc2ccc(Cl)cc2)c1	1.16	-0.67
Cc1cccc(-n2c(C)cc(/C=N/NC(=O)c3cccc([N+](=O)[O-])c3C)c2C)c1	0.27	1.87
COc1ccc(-n2ccc(-c3nn(-c4cccc(C(F)(F)F)c4)ccc3=O)n2)cc1	0.2	-2.24
O=C(NC(=S)Nc1ccc(S(=O)(=O)Nc2nccs2)cc1)c1ccccc1F	0.26	-2.28
(next part)
SMILES	KCNQ2 pot	KCNQ2 pot baseline
CS(=O)(=O)N1CCC(C(=O)N2CCN(C(c3ccccc3)c3ccccc3)CC2)CC1	2.36	-3.78
CC1CCCc2sc3nc(N4CCN(CCO)CC4)n4ncnc4c3c21 (centres undefined)	4.62	-3.69
NNC(=O)c1ccc(COc2ccc3ccccc3c2)o1	1.23	0.77
Cc1nc(SCC#N)c2c(C)c(C)sc2n1	0.6	0.18
COc1ccc(N2CCN(C(CNC(=O)C(C)(C)C)c3cccnc3)CC2)cc1 (centres undefined)	2.25	-0.86
C/C=C/c1ccc(OCC(=O)Nc2cc(OC)c(OC)c(OC)c2)c(OC)c1	0.93	-1.52
COC(=O)/C=C/C(=O)Nc1cccc(C(F)(F)F)c1	2.16	-0.75
Cc1cccc(NC(=O)CCC(=O)Nc2nnc(C(F)(F)F)s2)c1	1.2	-0.5
CCN(CC)C(=O)C(=O)N/N=C/c1cccc(Br)c1	0.27	1.17
COc1cccc(OC)c1C(=O)Nc1cccc(C(C)=O)c1	0.03	1.12
COc1ccc(C(=O)Nc2cccc(C(=O)O)c2)cc1S(=O)(=O)N1CCCC1	0.01	-0.25
CCCCNC(=S)N1CCN(c2nc3ccccc3s2)CC1	0.35	-0.04
CC(Cc1ccccc1)C(=O)NCc1ccccn1 (centres undefined)	0.24	-0.3
CN(C)CCNCc1ccccc1OC1CCCC1	0.05	-1.53
COc1ccccc1-n1cnc2cc(NC(=O)c3ccco3)ccc21	0.53	1.45
COc1ccc(CCNC2=C(Cl)C(=O)N(CCc3ccc(OC)c(OC)c3)C2=O)cc1OC	0.01	-0.94
O=S(=O)(c1ccc2ccccc2c1)N1CCN(S(=O)(=O)N2CCCCC2)CC1	0.21	0.01
CC1(C)Cc2c(c(=S)nc(-c3ccccc3)n2CCN2CCOCC2)CO1	0.04	0.1
COc1ccc(C(=O)N2c3ccccc3C(=O)OC2c2ccc3c(c2)OCO3)cc1 (centres undefined)	0.68	-0.44
O=C(Nc1ccc(N2CCOCC2)cc1N1CCOCC1)c1ccco1	4.12	-1.22
CCN(C(=S)Nc1ccc(OC(F)F)cc1)C1CCCCC1	0.89	-0.05
O=C(O)c1cc(Cl)ccc1NC(=O)C1CCCO1 (centres undefined)	0.63	0
O=C(Nc1nc2ccc(Cl)cc2s1)c1ccc(Br)o1	0.57	0.75
CC(C)=CCc1cc(-c2oc3cc(O)cc(O)c3c(=O)c2O)ccc1O	2.36	-1.05
Fc1ccc(C2=NOC(c3nnc(-c4ccccc4)o3)C2)cc1 (centres undefined)	0.88	-0.48
(list continues)
SMILES	KCNQ2 pot	KCNQ2 pot baseline
Cc1ccc2nc(NNC(=O)c3ccc4c(c3)OCCO4)sc2c1	2.26	-0.63
Cc1cc(C(=O)NC2Cc3ccccc3C2)c(C)o1	1.54	-1.18
CCOC(=O)c1ccc(N2C(=O)C3CC=C(C)CC3C2=O)cc1 (centres undefined)	1.17	-0.95
COc1ccc(OC)c(Nc2nc(N)nc(CSc3nnc(N)s3)n2)c1	2.48	-0.71
CCOC(=O)N1CCN(S(=O)(=O)c2cc3c(cc2C)NC(=O)CO3)CC1	1.11	-0.6
CCN(CC(=O)NC1CCS(=O)(=O)C1)S(=O)(=O)c1ccc2ccccc2c1 (centres undefined)	0.37	0.02
CCN(CC)S(=O)(=O)c1ccc(OC)c(NC(=O)c2cc(C)on2)c1	0.53	-1.05
c1ccc(CCc2nc(-c3ccccc3)no2)cc1	0.03	0.44
CN(C)/C=N/c1sc2c(c1C#N)CCCCC2	1.49	0.16
C/C(=N\Nc1nc(C)cc(=O)[nH]1)C1CC1	0.57	2.37
NC(=O)N1CC(O)CC1C(=O)Nc1ccc(Cl)c(Cl)c1 (centres undefined)	0.06	0.63
C/C(=N\NC(=S)NC1CCCCC1)c1cccc(Br)c1	0.5	0.51
O=C(CCC(=O)N1CCN(c2cccc(Cl)c2)CC1)N1CCN(c2ccccc2)CC1	1.29	0.16
O=C(CCN1C(=O)c2ccccc2S1(=O)=O)Nc1ccc2c(c1)OCCO2	0.79	0.08
CCCn1c2ccc(C)cc2c2nnc(SCCN3CCCCC3)nc21	1.62	-0.67
CC(=O)Nc1cccc(OCC(=O)Nc2ccccc2)c1	1.05	-0.65

Screening results deposited in PubChem by Johns Hopkins Ion Channel Center.
